Source: PubChem
TAR Tat displ – HIV-1 TAR-Tat binding disruption; z-score (test concentration not listed); HIV-1 TAR RNA, Tat peptide displacement FRET; stronger effect = higher value; 100,000 tested, 0.6% active; AID 1259389;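 note: score is relative to mean and SD of negative controls; some compounds called inactive have numbers as strong as hits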
CDC25B CDK2 inh – human CDC25B-CDK2/CyclinA binding inhibition; P30305+P24941; HTRF CDC25B-CDK2/CyclinA binding, anti-His/anti-Flag; stronger effect = higher value; z-score (no concentration beside the values); 94,000 tested, 0.72% active; AID 1259370;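 note: score is relative to mean and SD of negative controls; strong numbers were not always called active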
* = called active by the depositor; x = no result given.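 Rule for the calls: active = z-score from 3 up in half or more of its runs; inactive = the rest.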

SMILES	TAR Tat displ	CDC25B CDK2 inh
COc1ccc(OC)c(Nc2nc(-c3cccs3)cs2)c1	x	-2.3
O=c1c2nccnc2nc(SCc2cc(=O)n3cc(Cl)ccc3n2)n1CCc1ccccc1	1.1	-1.9
COCCn1c(CN2CCN(c3ccc(OC)cc3)CC2)nc2c1c(=O)n(C)c(=O)n2C	0.85	1.1
S=c1[nH]c(-c2ccc3c(c2)OCO3)cn1-c1cccc(Cl)c1	x	-2
CN1CCN(C(=O)c2oc3ccccc3c2NC(=O)c2ccco2)CC1	0.01	x
CC1CCN(C(=O)C2CCN(c3ccc4cc(S(=O)(=O)N5CCCCC5)ccc4n3)CC2)CC1	0.94	x
CCN(CC)CCNS(=O)(=O)c1cc(Br)cnc1N	1.6	-0.81
O=C(c1cnn2c(C(F)F)cc(-c3ccccc3)nc12)N1CCCC1c1cccs1 (stereo not drawn)	0.36	1.8
COc1ccc(SCc2nsc(Sc3ccc(OC)cc3)n2)cc1	x	-1.9
O=[N+]([O-])c1cccc(-c2ccn(S(=O)(=O)c3ccc(Cl)cc3)n2)c1	x	-1.6
CCCCC(Sc1ccc2nnc(-c3ccc(OCC)cc3)n2n1)C(=O)O (stereo not drawn)	x	-3.1
COc1ccc(-c2csc(-c3nc(-c4cccc(OC)c4)cs3)n2)cc1	0.39	x
O=C(CSCc1cccc2ccccc12)Nc1ccc(C(F)(F)F)cc1	x	-2.4
CCOC(=O)CNC(=O)c1ccc(-c2cccc([N+](=O)[O-])c2)o1	x	-0.2
CCCC(=O)Nc1nnc(S(=O)(=O)N2CCCCC2)s1	1.3	-2.4
CCn1c(=O)c2sccc2n2c(CCCC(=O)N3CCN(C(=O)c4ccco4)CC3)nnc12	0.55	x
COc1ccc(CCn2cc3c(c2-c2ccc(Br)cc2)c(=O)n(C)c(=O)n3C)cc1OC	2	2.1
CC(=O)N[C@@H](C(N)=S)[C@@H](OC(C)=O)[C@H](OC(C)=O)[C@@H](COC(C)=O)OC(C)=O	x	0.32
COC(=O)c1sccc1NC(=O)CC1C(=O)NCCN1S(=O)(=O)c1ccccc1C#N (stereo not drawn)	x	-0.36
CC1=C(c2ccc(C)c(C)c2)S(=O)(=O)NC1=NCc1ccccn1	-0.41	-1.6
Oc1ccccc1Nc1nc(NCc2ccco2)c2ccccc2n1	8.7	-1.2
CCOC(=O)c1c(C)[nH]c(C)c1S(=O)(=O)Nc1c(Cl)cc(OC)cc1OC	-1.4	x
COc1ccc(S(=O)(=O)NCc2ccco2)cc1OC1CCCC1	x	-1.5
O=C(NCCN1CCOCC1)C1CCN(c2ncnc3c2nc2n3CCCCC2)CC1	-0.54	x
CCc1ccc(C2c3c(-c4ccccc4O)n[nH]c3C(=O)N2CCO)cc1 (stereo not drawn)	1.6	-2.3
COc1ccc(C(=O)OCC(=O)c2ccc(Br)cc2)cc1OC	1	-1.9
O=C(c1noc2c1COc1ccccc1-2)N1CCN(c2ccccc2F)CC1	1.4	-0.74
O=C(CSc1nc2ccccc2[nH]1)Nc1ccc(F)cc1	x	-1.5
O=C(O)C1CCCN1S(=O)(=O)c1cccc2cccnc12 (stereo not drawn)	0.86	x
COc1ccc2c(c1)CCc1c(C(=O)Nc3ccc4c(c3)OCO4)noc1-2	x	-0.75
O=C(CCC(=O)OCC(F)(F)F)Nc1nc2ccccc2s1	x	3.2
FC(F)(F)c1cccc(NC(=S)NNc2nccc(C(F)(F)F)n2)c1	x	-0.73
CC(=O)Nc1nonc1-c1nc2ccccc2n1Cc1cc2c(cc1Br)OCO2	2.3	-3.4
CCCSCCCNC(=O)Cn1ncn2nc(-c3ccco3)cc2c1=O	0.43	-0.77
Cn1ncc2c(NCc3ccccc3)nc(NCCN3CCOCC3)nc21	1.2	x
COC(=O)c1ccc2[nH]c3c(c2c1)CC(C)CC3 (stereo not drawn)	-0.5	-1.9
COC(=O)c1cc2c(cc1NC(=O)Cn1ncc3c([nH]c4ccccc43)c1=O)OCO2	0.66	x
CC1(C)CC(NC(=S)NC2CCCCC2)CC(C)(C)N1	x	-3
CS(=O)(=O)N1CCc2cc(C(=O)NCCC3=CCCCC3)ccc21	2.1	0.78
Oc1ccc(-c2csc(Nc3cccnc3)n2)cc1	-0.3	-1.6
O=C1CN(Cc2cccc(Cl)c2)S(=O)(=O)c2ccccc2N1Cc1ccccc1F	1.2	x
O=C1c2ccccc2C(Nc2ccc(F)cc2F)N1c1cccnc1 (stereo not drawn)	1.8	-1.1
O=C(Cn1cnc2c(nc3n2CCCCC3)c1=O)N1CCOCC1	1.2	x
Cn1c(=O)[nH]c(=O)c2c1nc(N1CCN(CCO)CC1)n2Cc1ccc(F)cc1	x	-1.3
Cc1ccc(NS(=O)(=O)c2ccc(-c3ccc(=O)[nH]n3)s2)cc1C	-0.46	x
Cc1cccc(-c2nc(C(N)=O)c3[nH]c(=O)n(-c4ccc(C)c(C)c4)c3n2)c1	0.85	x
COCCN(CCS(=O)(=O)N1CCNCC1)S(=O)(=O)c1ccc(Cl)cc1	0.21	x
COc1ccc(Cl)cc1Nc1c(-c2ccc3c(c2)OCC(=O)N3)c(=O)c1=O	0.64	x
O=C(c1cc2c(s1)-c1ccccc1S(=O)(=O)C2)N1CCN(c2cccc(Cl)c2)CC1	x	-3.6
CCC(C)NC(=O)c1cc(S(=O)(=O)N2CCOCC2)cn1C (stereo not drawn)	0.19	x
O=C(Nc1ccccc1)c1csc(-c2ccccc2)n1	x	-1.4
O=C(NOC(=O)c1cccs1)c1ccco1	x	-1.6
O=C(OC1c2ccccc2C(=O)N1Cc1ccccc1)c1cccc(Cl)c1 (stereo not drawn)	2.3	-0.81
COC(=O)c1cc(=O)n2c(-c3cccs3)nnc2s1	x	-1.4
CCC(C(=O)N1CCN(c2ccc(Cl)cc2)CC1)n1nc(C)n2c(cc3occc32)c1=O (stereo not drawn)	-0.83	-2.7
CCN(CC)CCNc1ncnc2c1sc1nc(N3CCOCC3)c3c(c12)CC(C)(CC)OC3 (stereo not drawn)	0.53	1.2
CCN(C(=O)c1cc2c(s1)-c1ccccc1OC2)c1ccccc1	1.2	-1.2
COC(=O)c1c(C)oc(C)c1S(=O)(=O)N1CCN(C2c3ccccc3-c3ccccc32)CC1	x	-1.8
C=CCNC(=O)c1ccc(C)c(NC(=O)C2=CSCCO2)c1	1.5	x
CC1CCN(c2cc(N(C)C)c3noc4c3c2C(=O)c2ccccc2-4)CC1	-5.5	-1.5

14 entries out of the list, sorted by heavy-atom count, low to high:
SMILES	TAR Tat displ	CDC25B CDK2 inh
O=C(NOC(=O)c1cccs1)c1ccco1	x	-1.6
COC(=O)c1cc(=O)n2c(-c3cccs3)nnc2s1	x	-1.4
O=C(Nc1ccccc1)c1csc(-c2ccccc2)n1	x	-1.4
C=CCNC(=O)c1ccc(C)c(NC(=O)C2=CSCCO2)c1	1.5	x
Cc1ccc(NS(=O)(=O)c2ccc(-c3ccc(=O)[nH]n3)s2)cc1C	-0.46	x
O=C1c2ccccc2C(Nc2ccc(F)cc2F)N1c1cccnc1 (stereo not drawn)	1.8	-1.1
COCCN(CCS(=O)(=O)N1CCNCC1)S(=O)(=O)c1ccc(Cl)cc1	0.21	x
COc1ccc(Cl)cc1Nc1c(-c2ccc3c(c2)OCC(=O)N3)c(=O)c1=O	0.64	x
Cc1cccc(-c2nc(C(N)=O)c3[nH]c(=O)n(-c4ccc(C)c(C)c4)c3n2)c1	0.85	x
Cn1c(=O)[nH]c(=O)c2c1nc(N1CCN(CCO)CC1)n2Cc1ccc(F)cc1	x	-1.3
O=C(c1cc2c(s1)-c1ccccc1S(=O)(=O)C2)N1CCN(c2cccc(Cl)c2)CC1	x	-3.6
CCC(C(=O)N1CCN(c2ccc(Cl)cc2)CC1)n1nc(C)n2c(cc3occc32)c1=O (stereo not drawn)	-0.83	-2.7
COC(=O)c1c(C)oc(C)c1S(=O)(=O)N1CCN(C2c3ccccc3-c3ccccc32)CC1	x	-1.8
CCN(CC)CCNc1ncnc2c1sc1nc(N3CCOCC3)c3c(c12)CC(C)(CC)OC3 (stereo not drawn)	0.53	1.2

Continued.
SMILES	TAR Tat displ	CDC25B CDK2 inh
COc1ccccc1C1Nc2ccc(C)cc2-c2cc(C)nn21 (stereo not drawn)	0.39	-1.6
CCOc1ccc(C(O)(C(C)C)C(CN2CCOCC2)c2ccc(Cl)cc2)cc1 (stereo not drawn)	1.6	-1.1
Cc1nn(CC(=O)N2CCCC2)c(C)c1S(=O)(=O)N1CCC(C(=O)N2CCCC2)CC1	1.7	x
COC(=O)c1c(NC(=O)C2Cc3ccc(C)cc3C(=O)O2)sc2c1CCC2 (stereo not drawn)	0.68	-2.5
O=C(CN1C(=O)CCc2ccccc21)NCCC1=CCCCC1	0.95	x
CCc1nnc2c3ccccc3nc(NCc3ccccc3)n12	1.1	x
CCN(CC)c1ccc(C(Nc2ccccn2)c2ccc3cccnc3c2O)cc1 (stereo not drawn)	0.67	-1.7
Fc1ccc(NCc2nc3ccccc3n2CCOc2ccccc2)cc1	-2.5	-0.16
Cc1ccc(-n2nnc3c(sc4nc(C)ccc43)c2=O)cc1	1.1	-0.75
CCOC(=O)c1c(C)oc2nc(C)nc(N3CCC(C)CC3)c12	0.47	x
CC(=O)N1c2ccc(S(=O)(=O)N3CCCC(C(=O)NC4CCC(C)CC4)C3)cc2CC1C (stereo not drawn)	1.4	x
C=C(C)Cn1c(/C=C/c2ccccc2)nc2ccccc21	x	-1.3
COCCn1c(CCC(=O)O)ccc1-c1ccc(Cl)cc1	-2.5	-0.62
c1ccc(CCCc2nc(-c3ccccn3)no2)cc1	x	-1.1
CCCN(CCC)C(=O)Cn1ncc2c3ccccc3n(C)c2c1=O	x	-1.6
CC1Cc2cc(S(=O)(=O)N3CCN(c4ccccc4)CC3)ccc2N1C(=O)C1CC1 (stereo not drawn)	-1.4	x
Cc1ccc(Nc2c(-c3ccc(C)c(C)c3)c(=O)c2=O)cc1	2.1	x
Clc1ccccc1CSc1nnc(C2CCNCC2)o1	1.2	-1.4
NC(N)=NS(=O)(=O)c1c(Cl)cc(C(F)(F)F)cc1Cl	x	-1.9
CC(C)NC(=O)NCCn1cnc2cc(C(=O)N3CCCC3)ccc21	0.78	x
O=C(Oc1ccc(Cl)cc1)c1snnc1-c1ccccc1	x	-1.4
COc1ccc(NC(=O)c2ccccc2Sc2ccccc2COC(C)=O)cc1	x	-0.75
CCN1CCN(CCCNC(=O)C2CCN(c3nnc(-n4c(C)ccc4C)s3)CC2)CC1	-0.35	-1.2
O=C(CS(=O)(=O)c1ccc(F)cc1)Nc1nc(-c2cccs2)cs1	1.2	x
CCCN(CCC)C(=O)c1oc2ccccc2c1NC(=O)C(C)(C)C	0.29	x
O=C(O)CSc1nnc(-c2cccc(F)c2)o1	0.2	2.8
Cc1nnc(SCC#CCO)s1	1.7	-1.5
CSCC(CSC)OC(=O)Nc1ccccc1	x	-2.3
Cc1nn2c3c(cnc2c1-c1ccc(Cl)cc1)C(=O)CC(c1ccco1)C3 (stereo not drawn)	-8.4	-1.4
N#CC1=C(N)Oc2n[nH]c(-c3ccccc3)c2C12C(=O)Nc1ccccc12 (stereo not drawn)	0.36	-0.2
COc1ccc(S(=O)(=O)Nc2cc(-c3cn4cccc(C)c4n3)ccc2C)cc1OC	-0.04	1.1
c1ccc(-c2oc3ncn4nc(-c5ccccn5)nc4c3c2-c2ccccc2)cc1	2.6	-0.1
N#Cc1c(Cl)cccc1-n1cccc1	x	-0.7
CC1(C)Cc2ccccc2-c2[nH]c(=O)n(-c3ccccc3)c(=O)c21	1.4	-4.5
CCOC(=O)c1c(C)oc2nc(C)nc(Nc3ccc(Cl)cc3)c12	0.44	x
O=C1CC(c2ccccc2Cl)CC2=C1C(c1coc3ccccc3c1=O)Nc1ccccc1N2 (stereo not drawn)	x	-0.43
O=C(CN1C(=O)c2cccnc2Oc2ccccc21)NCC1CCCO1 (stereo not drawn)	1.2	x
COc1ccc(Cl)cc1N1CC(O)=C(c2nc3ccccc3s2)C1=N	-0.68	-1.8
Cc1ccnc(NC(=O)c2cc3ccc4cccnc4c3[nH]2)c1	-0.2	x
CC1(C)CC(=O)C2=C(C1)Nc1ccccc1NC2c1cccc(Cl)c1 (stereo not drawn)	-15	-0.01
O=C1CC(c2ccccc2)CC2=C1C(c1ccccc1Br)Nc1ccccc1N2 (stereo not drawn)	x	-0.62
CCC(C)n1c(=O)[nH][nH]c1=S (stereo not drawn)	x	-1
CCOC(=O)c1c(C)[nH]c(NC(=O)Nc2ccccc2)c1C	0.7	-0.78
C=CCOc1ccc(/C(O)=C2\C(=O)C(=O)N(CCN(C)C)C2c2ccc(Br)cc2)c(C)c1 (stereo not drawn)	0.11	2.1
CCc1nc2nc(CSc3nc4ccc(NC(=O)c5ccco5)cc4s3)cc(=O)n2[nH]1	4.9*	x
CC(C)C(NS(=O)(=O)c1ccc(CN2C(=O)c3cccnc3C2=O)s1)c1cccs1 (stereo not drawn)	1.6	x
Cc1cc(C)c2c(=O)[nH]c(SCc3ccc(F)cc3)nc2n1	1.3	-1.4
CC1CCCC(N2CC(=O)N(CCc3ccccc3)C(c3ccc(F)cc3)C2=O)C1C (stereo not drawn)	x	-0.66
O=C1CSC(c2ccc(F)c(F)c2)N1c1ccc2ccccc2c1 (stereo not drawn)	1.9	x
CC12CN3CC(C)(CN(C1)C3c1ccc(Br)cc1)C2=O (stereo not drawn)	x	-2
CCOC(=O)CSc1nnc(OCC)n1-c1ccccc1	x	-0.33
Cc1ccc([C@@H]2Nc3c(F)cccc3[C@@H]3C=CC[C@@H]32)cc1	x	-1.8
CC(=O)Nc1c2n(c3ccc(F)cc13)CC(C)(C(=O)NC1CCCCC1)N(C1CCCC1)C2=O (stereo not drawn)	1.4	x
Cc1ccc(C)n1-c1nnc(N2CCC(C(=O)N3CCCC3)CC2)s1	0.7	0.12
Oc1ccc(-c2nc(-c3ccccc3)c(-c3ccc(O)cc3)[nH]2)cc1	-1.7	-1.4

Quoted at random: two compounds from above, in no set order.
SMILES	TAR Tat displ	CDC25B CDK2 inh
CCc1nc2nc(CSc3nc4ccc(NC(=O)c5ccco5)cc4s3)cc(=O)n2[nH]1	4.9*	x
CCOC(=O)c1c(C)[nH]c(NC(=O)Nc2ccccc2)c1C	0.7	-0.78
